D2 potentiator: human D2 receptor positive allosteric modulation; P14416; DiscoveRx D2 beta-arrestin cells, luminescence, 90 min; 100% = 57 uM dopamine signal; potentiation, % (no concentration beside the values); 0.23% of 360,000 active; AID 624464; active = potentiation of 50% or more; inconclusive = 30% to 50%; inactive = 30% or less;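 also: compound concentration not given in the record; tested on top of an EC20 dose of dopamine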
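PathHunter D2 cells, attached overnight at 37 deg C, received compound in DMSO plus dopamine at EC20 (50 nM final) for 90 min at 37 deg C. Beta-arrestin recruitment was read as luminescence after 1 h with detection reagent at ambient temperature.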
CtBP-E1A blk: inhibitors of CtBP/E1A interaction; AlphaScreen GST-E1A/His-CtBP binding, 1536-well; active compounds read low; control for the full effect not named in the record; activity change, % (test concentration not listed); 0.49% of 340,000 active; in the data active means activity change below about -65%; inconclusive means about -30% to -65%; inactive means above about -30%; also: % is scaled to controls: 0 for no effect and ±100 for the full control effect
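GST-E1A and His-tagged CtBP (125 nM each as 5X stock) were preincubated with pin-transferred compound for 2 h at 37 °C in the dark, then glutathione donor and nickel acceptor beads were added for 1 h before AlphaScreen reading.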
gsp agonist: agonists of gsp mutant (McCune-Albright syndrome); gsp mutant cells, cAMP HTRF, 30 min; control for the full effect not named in the record; Potency, µM (titrated, usually from 76.9 µM), for inactives: at the top dose activation (cAMP increase), hits mostly activators; 0.13% of 340,000 active; active = well fitted activation curve with a large enough effect; inconclusive = small, poorly fitted or top-dose-only effect, or another doubt; inactive = no such curve, though single readings can be large or run the other way; cell line not stated here;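 also: phosphodiesterase inhibitor Ro 20-1724 added with compounds to block cAMP breakdown; potency is read from the fitted curve at half-maximal effect; nearly all actives have a fitted effect of over 60% in size; about a fifth of the inactives were tested at one dose only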
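Cells stably selected in G418 were plated at 2000/well, grown 16-24 hr, then given compounds in DMSO with the PDE inhibitor […] (300 uM solution added) for 30 min at 37C; cAMP was read by HTRF.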
Six1-Eya2 inh: inhibitors of human Six1/Eya2 interaction; activity change, % (test concentration not listed); AID 651725; 0.56% of 360,000 active; AlphaScreen GST-Six1/His-Eya2 binding, biochemical; active compounds read low; control for the full effect not named in the record; Q15475+O00167; in the data active = activity change below about -65%; inconclusive = about -30% to -65%; inactive = above about -30%; also: % is scaled to controls: 0 for no effect and ±100 for the full control effect
Target sequence (O00167 whole entry, looked up): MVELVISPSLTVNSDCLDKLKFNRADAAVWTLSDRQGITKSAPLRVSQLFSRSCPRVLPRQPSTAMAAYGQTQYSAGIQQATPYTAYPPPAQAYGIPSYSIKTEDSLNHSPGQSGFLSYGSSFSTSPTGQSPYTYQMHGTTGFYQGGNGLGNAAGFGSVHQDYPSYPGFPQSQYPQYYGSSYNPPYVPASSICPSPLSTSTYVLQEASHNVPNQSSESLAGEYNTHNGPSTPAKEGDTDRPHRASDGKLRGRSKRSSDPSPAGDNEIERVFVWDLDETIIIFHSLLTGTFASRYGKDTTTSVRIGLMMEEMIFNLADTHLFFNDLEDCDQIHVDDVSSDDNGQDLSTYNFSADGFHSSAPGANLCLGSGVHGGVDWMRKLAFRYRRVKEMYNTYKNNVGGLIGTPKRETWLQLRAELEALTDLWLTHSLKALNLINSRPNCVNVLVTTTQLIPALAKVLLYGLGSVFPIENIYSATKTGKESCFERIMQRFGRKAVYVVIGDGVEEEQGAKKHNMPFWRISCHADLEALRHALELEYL
Target sequence (Q15475 whole entry, looked up): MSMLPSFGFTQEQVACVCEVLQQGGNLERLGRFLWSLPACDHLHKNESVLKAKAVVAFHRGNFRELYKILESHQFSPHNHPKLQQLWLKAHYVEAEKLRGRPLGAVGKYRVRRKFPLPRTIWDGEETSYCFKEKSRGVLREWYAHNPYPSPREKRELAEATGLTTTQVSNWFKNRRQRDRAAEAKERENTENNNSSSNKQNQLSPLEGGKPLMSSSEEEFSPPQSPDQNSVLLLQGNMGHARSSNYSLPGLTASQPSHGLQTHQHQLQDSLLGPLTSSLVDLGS
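Compounds are tested against tagged Six1 and Eya2 proteins bridged by glutathione donor and nickel acceptor beads; after a one-hour incubation at 37 °C without light, AlphaScreen emission is recorded.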
gsp antag: antagonizes gsp, the McCune-Albright syndrome mutation; gsp-mutant cells, cAMP HTRF, 30 min; control for the full effect not named in the record; Potency, µM (doses to about 76.9 µM), for inactives: top-dose activity change, negative = inhibition, actives largely listed as inhibitors; 0.4% of 340,000 active; AID 624288; active = falling curve of any shape with a large fitted effect; inconclusive = falling curve, mostly with a smaller effect; inactive = flat or rising curve; cell line not stated here;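 also: intracellular cAMP measured with PDE inhibitor Ro 20-1724 present during compound exposure; potency is read from the fitted curve at half-maximal effect; % is scaled to controls: 0 for no effect and ±100 for the full control effect; nearly all actives have a fitted effect of over 65% in size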
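G418-selected cells were plated in DMEM/10% FBS for 16-24 h at 37C, then treated with compounds plus the PDE inhibitor […] (300 uM solution added) for 30 min at 37C. Intracellular cAMP was measured by HTRF after 30 min lysis at room temperature.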
D2 ag: human D2 receptor agonism in beta-arrestin assay | 0.084% of 360,000 active | AID 624465 | DiscoveRx PathHunter D2 beta-arrestin, luminescence, 90 min; 100% = 57 uM dopamine signal | activation, % (test concentration not listed) | P14416; in the data active = activation above about 40%; inconclusive = about 15% to 40%; inactive = below about 15%; also: compound concentration not given in the record; the text of the record calls up to 30% inactive
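Agonist mode: compounds alone added to overnight-plated D2 PathHunter cells for 90 min at 37 C, with 57 uM final dopamine (EC100) defining full response. Beta-arrestin recruitment detected by chemiluminescent reagent, read after 1 h at ambient temperature.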
An asterisk follows results filed as active; [ ] = dose if it differs, or a comment.

Start of the data: the first three entries, ahead of the listing:
Screening Cc1c(NC(=O)C(C)n2cc([N+](=O)[O-])cn2)c(=O)n(-c2ccccc2)n1C (centres undefined) returned D2 potentiator 13, CtBP-E1A blk 14, gsp agonist -21%[15.4 µM], Six1-Eya2 inh 6, gsp antag 13% and D2 ag 3.9.
`COc1ccc(CCC(=O)Nc2ccc(Cl)c(S(=O)(=O)N3CCCC3)c2)cc1` gave D2 potentiator -12, CtBP-E1A blk 0, gsp agonist -3%, Six1-Eya2 inh -9, gsp antag -21% and D2 ag 4.7.
Screening Cc1ccc(NC2=CC(=O)CCC2)cc1C returned D2 potentiator -8, CtBP-E1A blk 5, gsp agonist 1%, Six1-Eya2 inh 4, gsp antag -2% and D2 ag -2.7.

The listing, from the start:
Screening Cc1c(NC(=O)C(C)n2cc([N+](=O)[O-])cn2)c(=O)n(-c2ccccc2)n1C (centres undefined) returned D2 potentiator 13, CtBP-E1A blk 14, gsp agonist -21%[15.4 µM], Six1-Eya2 inh 6, gsp antag 13% and D2 ag 3.9.
`COc1ccc(CCC(=O)Nc2ccc(Cl)c(S(=O)(=O)N3CCCC3)c2)cc1` gave D2 potentiator -12, CtBP-E1A blk 0, gsp agonist -3%, Six1-Eya2 inh -9, gsp antag -21% and D2 ag 4.7.
Screening Cc1ccc(NC2=CC(=O)CCC2)cc1C returned D2 potentiator -8, CtBP-E1A blk 5, gsp agonist 1%, Six1-Eya2 inh 4, gsp antag -2% and D2 ag -2.7.
Screening Oc1ccc(Br)cc1-c1n[nH]c(=S)n1Cc1ccccc1 returned D2 potentiator -14, CtBP-E1A blk -9, gsp agonist 1%, Six1-Eya2 inh -18, gsp antag -3% and D2 ag 4.1.
COc1ccc(C)c2sc(N(CCN(C)C)C(=O)c3cccc(N4C(=O)CCC4=O)c3)nc12 was read as D2 potentiator -22, CtBP-E1A blk 5, gsp agonist 9%, Six1-Eya2 inh -1, gsp antag 14% and D2 ag -3.0.
For Cc1cccn2c(=O)c3cc(C(=O)O)n(C)c3nc12 the results were D2 potentiator -8, CtBP-E1A blk 3, gsp agonist inconclusive, Six1-Eya2 inh -7, gsp antag -4% and D2 ag -4.6.
Screening CCn1c(COC(=O)CNC(=O)c2ccccc2F)nc2cc(S(=O)(=O)N(C)C)ccc21 returned D2 potentiator -7, CtBP-E1A blk -18, gsp agonist 4%, Six1-Eya2 inh 1, gsp antag -2% and D2 ag -2.0.
CCN(CC)C(=O)N1CCn2c(nc3ccccc32)C1 was read as D2 potentiator 5, CtBP-E1A blk -5, gsp agonist -3%, Six1-Eya2 inh -14, gsp antag 6% and D2 ag -1.9.
Screening Nc1ccc(CNc2ncn[nH]2)cc1 returned D2 potentiator 3, CtBP-E1A blk 1, gsp agonist -3%, Six1-Eya2 inh -4, gsp antag 2% and D2 ag -0.3.
`CCCc1nc2oc3c(NCC(C)O)ncnc3c2c2c1CCCC2` (centres undefined) gave D2 potentiator -14, gsp agonist 27%, Six1-Eya2 inh -6, gsp antag -4% and D2 ag 2.4.
For CCCCn1c(SCC(=O)NC2CCCC2)nc2ccccc2c1=O the results were D2 potentiator -3, CtBP-E1A blk 6, gsp agonist 4%, Six1-Eya2 inh 0, gsp antag 24% and D2 ag -8.6.
Screening COc1ccc(F)cc1S(=O)(=O)N1CCCC(C)C1 (centres undefined) returned D2 potentiator -13, CtBP-E1A blk 5, gsp agonist 0%, Six1-Eya2 inh -1, gsp antag 7% and D2 ag -0.1.
Screening CCOC(=O)NC(Cc1c[nH]c2ccccc12)C(=O)NCCc1ccc(S(N)(=O)=O)cc1 (centres undefined) returned D2 potentiator 5, CtBP-E1A blk 9, gsp agonist inconclusive, Six1-Eya2 inh 6, gsp antag 7% and D2 ag 13.
Screening CCOc1cc(C(=S)N2CCN(C)CC2)ccc1OCC(=O)N1CCOCC1 returned D2 potentiator 9, CtBP-E1A blk 5, gsp agonist 9%, Six1-Eya2 inh 1, gsp antag -6% and D2 ag -1.9.
Screening O=C(NCCc1cccs1)c1ccc(Cl)cc1 returned D2 potentiator -8, CtBP-E1A blk -4, gsp agonist 3%[15.4 µM], Six1-Eya2 inh 1, gsp antag 6% and D2 ag -6.7.
For CCC1C(=O)N=C(SCC(=O)Nc2nc3ccccc3s2)NC1=O (centres undefined) the results were D2 potentiator 1, CtBP-E1A blk 0, gsp agonist -1%, Six1-Eya2 inh 4, gsp antag 8% and D2 ag -1.6.
For O=C(/C=C1\NCC2c3ccccc3CCN2C1=O)c1ccccc1 (centres undefined) the results were D2 potentiator -7, CtBP-E1A blk 1, gsp agonist 21%, Six1-Eya2 inh -2, gsp antag -12% and D2 ag -0.2.
Screening COc1cccc(CC(=O)OCC(=O)NNC(=O)c2ccc([N+](=O)[O-])cc2)c1 returned D2 potentiator 1, CtBP-E1A blk 0, gsp agonist -2%[15.4 µM], Six1-Eya2 inh -3, gsp antag 18% and D2 ag -1.2.
For CC(C)(C)c1nn2cnnc2n(/N=C/c2cccc3ccccc23)c1=O the results were D2 potentiator 6, CtBP-E1A blk 10, gsp agonist 18%, Six1-Eya2 inh -4, gsp antag -16% and D2 ag 0.3.
For C[C@H](NC(=O)OC(C)(C)C)C(=O)NCC1CCC(C(=O)N[C@@H](Cc2ccccc2)C(=O)O)CC1 (some centres undefined) the results were D2 potentiator 0, gsp agonist 1%, Six1-Eya2 inh 1, gsp antag 12% and D2 ag 4.9.
For COc1ccccc1NC(=O)C(=O)NCCC1CCCCN1S(=O)(=O)c1ccccc1 (centres undefined) the results were D2 potentiator -5, CtBP-E1A blk -22, gsp agonist -14%[15.4 µM], Six1-Eya2 inh 9, gsp antag -3% and D2 ag -0.3.
For CS(=O)(=O)c1ccc(C(=O)NCc2ccc(F)cc2)cc1 the results were D2 potentiator 3, CtBP-E1A blk 3, gsp agonist -16%[15.4 µM], Six1-Eya2 inh 6, gsp antag 0% and D2 ag 7.5.
Screening COCCn1c(C)cc(C(=O)CN2c3cccc4cccc(c34)S2(=O)=O)c1C returned D2 potentiator -7, CtBP-E1A blk 9, gsp agonist 9%[15.4 µM], Six1-Eya2 inh 8, gsp antag -21% and D2 ag -0.6.
c1ccc(NCc2cccnc2)cc1 was read as D2 potentiator -2, CtBP-E1A blk 8, gsp agonist inconclusive, Six1-Eya2 inh -2, gsp antag 8% and D2 ag -1.2.
CCN(c1ccc(OCC(=O)OCC(=O)Nc2ccc(F)c(F)c2F)cc1)S(=O)(=O)c1ccccc1 was read as D2 potentiator -2, CtBP-E1A blk 12, gsp agonist -19%[15.4 µM], Six1-Eya2 inh 8, gsp antag 9% and D2 ag -2.7.
For COc1cccc(NC(=O)CNC(=O)[C@@H]2Cc3ccccc3CN2C(=O)OC(C)(C)C)c1 the results were D2 potentiator -22, CtBP-E1A blk -13, gsp agonist inconclusive, Six1-Eya2 inh 4, gsp antag -3% and D2 ag -1.8.
`O=C(NNc1ccccc1[N+](=O)[O-])NC1CCCCC1` gave D2 potentiator -2, CtBP-E1A blk -14, gsp agonist -7%[15.4 µM], Six1-Eya2 inh -5, gsp antag 4% and D2 ag -2.4.
`O=C(COC(=O)C1CC(=O)N(Cc2ccccc2)C1)Nc1ccc([N+](=O)[O-])cc1Br` (centres undefined) gave D2 potentiator -8, CtBP-E1A blk 5, gsp agonist -45%[inhibitor], Six1-Eya2 inh 2 and D2 ag -1.9.
`CN(C)c1ccc(C(=O)N2CCCC(CCC(=O)N3CCN(c4ccccn4)CC3)C2)cc1` (centres undefined) gave D2 potentiator -6, CtBP-E1A blk -3, gsp agonist 1%, Six1-Eya2 inh -2, gsp antag -23% and D2 ag -1.2.
Screening COc1ccc(C2C(C(=O)O)c3ccccc3C(=O)N2C)cc1Br (centres undefined) returned D2 potentiator -5, CtBP-E1A blk -3, gsp agonist -39%[inhibitor], Six1-Eya2 inh -8, gsp antag -8% and D2 ag -2.5.
CC(C)(C)C(=O)Nc1ccccc1-c1nc2ccccc2[nH]c1=O was read as D2 potentiator -5, CtBP-E1A blk 3, gsp agonist -21%, Six1-Eya2 inh -6, gsp antag 3% and D2 ag 15.
`O=C(Nc1cccc([N+](=O)[O-])c1)Nc1cnccn1` gave D2 potentiator -3, CtBP-E1A blk 0, gsp agonist 4%, Six1-Eya2 inh 5, gsp antag -3% and D2 ag 1.3.
`CN(C)C(=O)CCC(=O)N1CCCC(C(=O)c2ccc(C(F)(F)F)cc2)C1` (centres undefined) gave D2 potentiator -12, CtBP-E1A blk -20, gsp agonist 1%, Six1-Eya2 inh -14, gsp antag -2% and D2 ag 3.1.
Screening C#Cc1ccc2c(c1)COc1c3ccccc3nn1-2 returned D2 potentiator -12, CtBP-E1A blk -4, Six1-Eya2 inh -2, gsp antag -16% and D2 ag -1.9.
CCC(=O)Nc1ccc(-c2nn3c(C)nnc3s2)cc1C was read as D2 potentiator -15, CtBP-E1A blk 1, gsp agonist 16%, Six1-Eya2 inh 3, gsp antag 4% and D2 ag -3.5.
For NC1=NC(=O)/C(=C/c2ccccc2OS(=O)(=O)c2ccccc2)S1 the results were D2 potentiator -5, CtBP-E1A blk -2, gsp agonist 2%[15.4 µM], Six1-Eya2 inh 14, gsp antag 0% and D2 ag -4.3.
For COc1ccc(S(=O)(=O)NCC2CCCN(Cc3ccc(C)o3)C2)cc1 (centres undefined) the results were D2 potentiator -29, CtBP-E1A blk 3, gsp agonist 21%[15.4 µM], Six1-Eya2 inh 0 and D2 ag -14.
Screening O=[N+]([O-])c1cccc(/C=C/c2ccncc2)c1 returned D2 potentiator -3, CtBP-E1A blk -5, gsp agonist 2%[15.4 µM], Six1-Eya2 inh -11, gsp antag 0% and D2 ag 0.8.
O=C(CN1CCC(O)(c2ccccc2)CC1)Nc1ccc2c(c1)OCCO2 was read as D2 potentiator -35, gsp agonist -27%, Six1-Eya2 inh -3, gsp antag 6% and D2 ag -6.2.
For CCc1nc(C)cn1S(=O)(=O)c1cc(OC)c(C)cc1C the results were D2 potentiator 3, CtBP-E1A blk 1, gsp agonist 1%, Six1-Eya2 inh -1, gsp antag 32µM* and D2 ag 0.3.
CNC(=O)c1ccccc1S(=O)c1ccccc1C#N (centres undefined) was read as D2 potentiator 6, CtBP-E1A blk 4, gsp agonist -23%, Six1-Eya2 inh -2, gsp antag 5% and D2 ag 3.2.
For CN1CCN(c2nc3c(c(=O)[nH]c(=O)n3C)n2Cc2ccc(Cl)cc2)CC1 the results were D2 potentiator -5, CtBP-E1A blk -6, gsp agonist inconclusive, Six1-Eya2 inh 1, gsp antag -1% and D2 ag -5.0.
For Cc1ccc(CSCCNC(=O)CN(c2ccccc2)S(C)(=O)=O)cc1 the results were D2 potentiator -6, gsp agonist 3%[15.4 µM], Six1-Eya2 inh 0, gsp antag 0% and D2 ag 2.0.
Screening CN1CCN(C(=O)c2cc([N+](=O)[O-])cc([N+](=O)[O-])c2)CC1 returned D2 potentiator -1, CtBP-E1A blk -7, gsp agonist 15%, Six1-Eya2 inh 5, gsp antag 5% and D2 ag 2.0.

High-throughput results: PubChem BioAssay, National Center for Advancing Translational Sciences (NCATS)
